Screening results as filed in PubChem.
Ecoli growth = blocks Escherichia coli growth; OD600 absorbance (no concentration beside the values); OD600, 23 h; active compounds read low; 0.21% of 330,000 active;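 active = OD600 absorbance below the run mean of sample wells minus 3.6 SD, in any replicate, cut at about 0.56 in these data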;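 note: stock transfer was 300 nL into about 60 µL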
T cruzi inh = T. cruzi replication inhibition; T. cruzi beta-gal in NIH3T3, luminescence, 90 h; 1.4% of 300,000 active; inhibition, % (concentration not given with the values);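 active = mean inhibition across valid replicates above about 55%, limit read from the data; inconclusive = mean below that limit but half or more replicates reach it; inactive = mean below it, under half of replicates reach it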;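 note: signal also drops with host cell toxicity which is not excluded here; 0% = plate median of DMSO wells and 100% = zero luminescence signal; higher percent means less beta-gal luminescence so fewer parasites; stock transfer was 50 nL into about 50 µL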
UCH37 inh = inhibitors of human deubiquitinating enzyme UCH37; inhibition, % (concentration not given with the values); purified proteasome/UCH37, Ub-AMC cleavage fluorescence; 0.33% of 330,000 active;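 active = mean of two replicates above 20%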;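 note: 0% = compound-free wells with enzyme and 100% = wells lacking proteasome; stock transfer was 100 nL into about 20 µL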
Target sequence (Q9Y5K5 whole entry, looked up): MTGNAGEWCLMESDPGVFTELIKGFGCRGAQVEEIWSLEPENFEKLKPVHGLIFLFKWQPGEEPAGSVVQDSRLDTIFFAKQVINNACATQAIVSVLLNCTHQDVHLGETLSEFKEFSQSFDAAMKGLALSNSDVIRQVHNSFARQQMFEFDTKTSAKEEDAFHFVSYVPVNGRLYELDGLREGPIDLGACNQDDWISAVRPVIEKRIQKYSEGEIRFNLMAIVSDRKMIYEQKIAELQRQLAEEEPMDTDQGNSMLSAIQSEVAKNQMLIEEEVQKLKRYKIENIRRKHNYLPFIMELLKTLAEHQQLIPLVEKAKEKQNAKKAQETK
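Material: human UCH37 enzyme supplied as purified proteasome complex / Amount: 0.15 nM proteasome as dispensed / Buffer or medium: pH 7.4 Tris-HCl (50 mM) with ovalbumin, ATP-MgCl2, DTT / Times: preincubation 30 min, reaction 25 min, room temperature / Technique: AMC fluorescence from Ub-AMC cleavage, excitation 355 nm, emission 460 nm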
Beta cell apopt = blocks beta cell apoptosis. INS-1E cytokine-induced death, ATP luminescence, 48 h; percent of positive-control rescue, neutral wells zero. protection from apoptosis, % (no concentration beside the values). 0.8% of 300,000 active. AID 435005;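 active = all replicates at 75% or more, or half of them and the mean; inconclusive = half reach 75% but not the mean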;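 note: 0% = cytokine-treated negative control wells and 100% = positive control rescue; higher means more ATP so stronger rescue from cytokine killing; wells of about 40 µL received 100 nL stock; the first replicate is given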
MLL AF4-AF9 inh = inhibitors of human MLL-AF4/AF9 interaction. P42568. AlphaScreen, biotin-AF4 peptide binding to FLAG-AF9. inhibition, % at 10 µM. 0.47% of 350,000 active. AID 651704;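 active = every replicate reaching a set inhibition limit, whatever the replicate mean, cut at about 25% in these data; inconclusive = mean inhibition reaches that limit but some replicates miss it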;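 note: 0% = plate neutral control median and 100% = total signal loss; the record names both 10 and 1 µM as test concentration; the first replicate is given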
Target sequence (P42568 whole entry, looked up): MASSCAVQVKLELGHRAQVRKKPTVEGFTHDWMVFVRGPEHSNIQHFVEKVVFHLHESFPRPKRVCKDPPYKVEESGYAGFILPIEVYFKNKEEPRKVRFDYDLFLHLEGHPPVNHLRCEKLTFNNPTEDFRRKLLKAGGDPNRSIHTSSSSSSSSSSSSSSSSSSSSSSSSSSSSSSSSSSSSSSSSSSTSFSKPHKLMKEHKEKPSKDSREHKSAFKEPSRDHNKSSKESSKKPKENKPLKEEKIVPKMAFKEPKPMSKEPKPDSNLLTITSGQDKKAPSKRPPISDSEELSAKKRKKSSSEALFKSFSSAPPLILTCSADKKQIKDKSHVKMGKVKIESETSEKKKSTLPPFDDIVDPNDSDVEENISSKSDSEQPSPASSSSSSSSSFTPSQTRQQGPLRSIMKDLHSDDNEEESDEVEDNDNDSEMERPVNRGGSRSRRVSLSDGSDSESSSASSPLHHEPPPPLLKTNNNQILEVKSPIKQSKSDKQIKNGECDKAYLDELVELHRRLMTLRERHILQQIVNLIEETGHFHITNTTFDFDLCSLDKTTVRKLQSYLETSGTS
rRNA inh HTS = inhibitors of bacterial rRNA selective over humanized ribosomes; 1.6% of 350,000 active; E. coli WT GFP vs humanized-ribosome RFP mutants, fluorescence, 24 h; active compounds read low; DMSO median 0, no signal -100; GFP signal change (wild-type ribosome), % (test concentration not listed); AID 720706;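 active = significant combined selectivity score with lowered wild-type GFP, culture density cut under 30%, mutant RFP and density less affected; inactive = any of these conditions unmet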; note: one replicate is shown; some compounds called inactive have numbers as strong as hits
FGF22 binding = FGF22 (human) thermal shift binding | recombinant FGF22 thermal shift, SYPRO orange fluorescence; percent of sucrose octasulfate shift, DMSO zero | calls only at 9.99 µM | 1.5% of 340,000 active | AID 651658;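 active = melting point raised past a set limit in the mean and every replicate; inconclusive = no clear call; three in four hits are not shown here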
Target sequence (Q9HCT0 whole entry, looked up): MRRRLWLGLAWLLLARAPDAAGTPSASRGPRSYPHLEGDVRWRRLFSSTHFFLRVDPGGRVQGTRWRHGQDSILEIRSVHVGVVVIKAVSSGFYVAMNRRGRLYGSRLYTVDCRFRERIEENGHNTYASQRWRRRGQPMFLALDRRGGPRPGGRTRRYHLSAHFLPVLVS
Bfl-1 A1 inh = inhibitors of the anti-apoptotic protein A1, read as caspase activation; MEF A1-2A-BIM cells, Caspase-Glo 3/7 luminescence, 3 h; percent of clofoctol response, vehicle zero; caspase activation, % (test concentration not listed); 0.066% of 330,000 active; AID 2462;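 active = over half of replicate activation scores above 10%, or exactly half above 10 with the replicate mean above 10; inconclusive = replicate mean below 10 yet half the replicates above 10; inactive = over half of replicates below 10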;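 note: wells of about 30 µL received 50 nL stock; many hits fall short of the cut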
rRNA inh HTS OD600 = recorded beside rRNA inh HTS, whose call it bears; OD600 change, %; measured here: OD600 growth;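 optical density of the mix in the first replicate; 0 = DMSO median and -100 = no signal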
rRNA inh HTS RFP = further read-out of rRNA inh HTS, marked with its call; RFP signal change, %; measured here: RFP humanized mutant strains;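 first replicate; 0 = DMSO median and -100 = no signal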
* hit, by the source's call; i = inactive; ? = inconclusive; . = not tested or not shown; & = joins results of further samples.

SMILES	Ecoli growth	T cruzi inh	UCH37 inh	Beta cell apopt	MLL AF4-AF9 inh	rRNA inh HTS	rRNA inh HTS OD600	rRNA inh HTS RFP	FGF22 binding	Bfl-1 A1 inh
CC(=O)N(CCO)Cc1cc2cc(C)cc(C)c2[nH]c1=O	0.66	9	-8.4	-3	.	.	.	.	.	-0.4
NC(=O)c1nn(-c2ccc(Oc3ccccc3)cc2)c(=O)cc1O	0.67	-4	-0.3	2	-0.4	11	7	3.1	i	1.4
O=C(NCCS(=O)(=O)c1ccc(Br)cc1)c1ccccc1	0.65	18	2.5	-6	-0.4	.	.	.	i	-0.5
COCC(C)n1c(C)cc(C(=O)COC(=O)c2nc3nc(C)cc(C)n3n2)c1C (centres undefined)	0.71	3	2.2	0	.	.	.	.	.	-0.1
COc1cccc(CNCC(=O)NC(=O)NC2CCCC2)c1	0.67	.	0.8	2	-0.7	6	6	-2.7	i	1.1
CCOc1ccc(S(=O)(=O)N2c3ccccc3CC2C)cc1 (centres undefined)	0.73	16	4.0	15	.	-22	-36	-6.4	.	0.1
CCn1cc(C(=O)NCCCOC)c2cc(OC)c(OC)cc2c1=O	0.71	-8	3.7	-4	.	.	.	.	.	0.4
Cc1ccc(S(=O)(=O)N(CC(=O)NCCSc2ccccn2)c2cc(C)cc(C)c2)cc1	0.8	41	5.1	.	.	.	.	.	.	0.9
CC(Nc1ccc(F)cc1F)C(=O)NC(=O)NC1CCCCC1 (centres undefined)	0.63	7	3.1	-7	1.5	10	9	1.9	i	-1.2
COCCNC(=O)C(OC(=O)CC1Sc2ccccc2NC1=O)c1ccncc1 (centres undefined)	0.69	1	4.9	-6	.	.	.	.	.	-0.5
COC(=O)NC(NC(=S)Nc1ccc([N+](=O)[O-])cc1)C(Cl)(Cl)Cl (centres undefined)	0.57	37	8.3	16	11	-37	-35	-5.8	i	-0.4
CCc1ccc(NC(=O)CCn2nc(C)c(S(=O)(=O)N3CCCCC3)c2C)cc1	0.66	6	-0.1	0	-3.6	-6	0	-1.2	i	1.0
CCCNc1sc(S(=O)(=O)CCC)nc1S(=O)(=O)c1ccc(C)cc1	0.67	16	2.1	-4	-0.6	-21	-25	2.2	.	1.0
CCOC(=O)C(NC(C)=O)C(O)c1ccc([N+](=O)[O-])cc1 (centres undefined)	0.67	-11	-1.2	.	-1.0	4	4	0.1	i	0.8
c1ccc(OCCCCn2cnc3ccccc32)cc1	0.72	5	-4.5	3	.	.	.	.	.	-0.4
CCc1ccccc1NC(=O)CNC(=O)c1ccccc1OCc1c(C)noc1C	0.64	-8	1.9	2	1.3	3	-2	0.7	i	0.4
O=C(/C=C/c1ccccc1Cl)NC1CCS(=O)(=O)C1 (centres undefined)	0.67	8	2.1	-3	0.1	13	14	0.1	i	1.1
CCn1c(CC(=O)Nc2ccc(C)c(Cl)c2)nnc1SCC(=O)Nc1nc(C)cs1	0.69	13	5.7	-5	.	.	.	.	.	0.8
CC(Oc1ccc(Br)cc1)C(=O)N1CCC(C(N)=O)CC1 (centres undefined)	0.68	-4	3.7	-7	-3.5	10	8	-13	i	-0.4
Cc1ccccc1OCCC(=O)OCC(=O)NCCNC(=O)COC(=O)CCOc1ccccc1C	0.61	-11	1.3	-9	2.1	2	-1	-0.5	i	-0.2
N#CNC(=Nc1ccc(Cl)cc1)Oc1ccccc1	0.65	-2	1.4	-5	-4.1	1	-3	6.5	i	-0.4
O=C(C(=O)N1CCOCC1)c1cn(CC(=O)N2CCCCC2)c2ccccc12	0.67	-16	4.8	-6	-1.4	3	11	-0.5	i	0.8
COc1ccccc1-c1cn[nH]c1-c1ccc(OCc2ccc(F)cc2)cc1O	0.7	23	2.1	8	1.1	-38	-62	-9.2	i	1.8
CN1C2CCC1CC(NC(=O)CSc1ccc(Cl)cc1)C2 (centres undefined)	0.63	-9	2.1	-2	0.5	13	10	-1.3	i	0.2
Cc1onc(-c2ccncc2)c1C(=O)O	0.68	0	3.4	-2	.	.	.	.	.	0.7
CC1CC(C)CN(S(=O)(=O)c2ccc(C(=O)Nc3nnc(-c4cccs4)o3)cc2)C1 (centres undefined)	0.7	24	-72	.	.	.	.	.	.	0.8
c1ccc(CCCNc2ncnc3nc[nH]c23)cc1	0.76	-5	5.4	-3	1.3	-9	-15	-2.4	i	-0.5
COc1ccc(S(=O)(=O)N2CCC(C(=O)N[C@@H](C)C(=O)NC3CCCC3)CC2)cc1	0.7	-6	0.3	-3	-1.2	0	-3	-2.9	i	-0.4
O=C(Oc1ccc(N2C(=O)CCC2=O)cc1)c1ccccc1Cl	0.68	2	2.9	0	.	.	.	.	.	-2.3
Cc1cccc(OCc2nnc(SCC(=O)NCCc3ccccc3)o2)c1	0.72	4	4.4	0	0.6	4	2	-4.0	i	-0.2

Fetched by compound from the list above (three):
SMILES	Ecoli growth	T cruzi inh	UCH37 inh	Beta cell apopt	MLL AF4-AF9 inh	rRNA inh HTS	rRNA inh HTS OD600	rRNA inh HTS RFP	FGF22 binding	Bfl-1 A1 inh
O=C(/C=C/c1ccccc1Cl)NC1CCS(=O)(=O)C1 (centres undefined)	0.67	8	2.1	-3	0.1	13	14	0.1	i	1.1
O=C(C(=O)N1CCOCC1)c1cn(CC(=O)N2CCCCC2)c2ccccc12	0.67	-16	4.8	-6	-1.4	3	11	-0.5	i	0.8
COc1ccc(S(=O)(=O)N2CCC(C(=O)N[C@@H](C)C(=O)NC3CCCC3)CC2)cc1	0.7	-6	0.3	-3	-1.2	0	-3	-2.9	i	-0.4

(cont.)
SMILES	Ecoli growth	T cruzi inh	UCH37 inh	Beta cell apopt	MLL AF4-AF9 inh	rRNA inh HTS	rRNA inh HTS OD600	rRNA inh HTS RFP	FGF22 binding	Bfl-1 A1 inh
Cc1ccc(S(=O)c2snnc2C)cc1 (centres undefined)	0.67	6	1.0	.	-4.3	7	11	1.3	i	0.2
Cc1cc(S(=O)(=O)Nc2cccc([N+](=O)[O-])c2)c(C)s1	0.68	-7	0.7	1	-3.4	-24	-29	-6.4	i	-0.3
CC1CCCCC1NC(=O)C1CCN(S(=O)(=O)N2CCCCCC2)CC1 (centres undefined)	0.76	-5	4.7	-1	.	.	.	.	.	0.2
CCOC(=O)COn1c(-n2nc(C)cc2C)nc2ccccc2c1=O	0.67	-2	2.1	-3	-1.0	10	2	-1.2	i	-0.9
CN1CCN(C(=O)C2CCN(S(=O)(=O)c3ccc4c(c3)oc(=O)n4C)CC2)CC1	0.71	.	2.9	.	4.1	6	10	-4.7	i	1.1
O=C(NCC(c1ccco1)N1CCc2ccccc2C1)c1cccc(F)c1 (centres undefined)	0.67	0	-0.4	-5	-2.2	-7	-5	1.3	i	1.6
Cc1cccc(Nc2nc(-c3ccc(O)c(O)c3)cs2)n1	0.67	-80	2.0	.	26*	-3	-1	-3.5	i	-0.7
C[C@@H](CN1C2=NC[C@H](Cc3ccccc3)N2C[C@H]1Cc1ccc(O)cc1)NC(=O)CCC1CCCCC1	0.8	9	3.5	4	10	-51	-79	-23	i	-1.0
Nc1c(C(=O)O)nnn1Cc1ccccc1	0.73	-20	-4.4	-1	.	8	15	0.5	.	-0.9
CCCn1c(SCC(=O)NC)nc2sc3c(c2c1=O)CCC3	0.7	4	3.8	.	-0.8	9	11	-0.6	i	3.3
O=C(c1ccc(Cl)c(F)c1F)N1CCOCC1	0.66	-10	3.4	-4	.	.	.	.	.	-0.1
COCCCNC(=O)/C(=C\c1cccn1C)NC(=O)c1cccs1	.	-6	4.6	0	.	.	.	.	.	0.7
S=C(NCc1ccccc1)N1CCN(C2CCCCC2)CC1	0.69	11	2.8	0	?	3	0	-4.7	i	-0.4
O=C(Nc1cc(Cl)ccc1Cl)C1CC(=O)N(c2ccccc2)C1 (centres undefined)	0.71	10	5.4	6	-1.8	17	5	-1.1	i	-0.1
Cc1cc(C)c(S(=O)(=O)N2CCN(C(=O)c3cc4ccccc4o3)CC2)c(C)c1	0.69	.	1.7	.	-0.7	-24	-28	-2.5	i	.
Cc1cc(Cl)ccc1NC(=O)CCN1C(=O)NC(C)(C)C1=O	0.69	.	5.9	-4	-0.9	.	.	.	i	-0.4
CCOc1ccccc1Nc1nc(N)nc(CSc2nncn2C)n1	0.67	-4	-2.4	-1	.	.	.	.	.	-1.0
CCOC(=O)c1nccnc1C(=O)Nc1ccc(C(F)(F)F)cc1	0.65	-7	3.0	-1	6.6	-17	1	-7.9	i	0.4
Cc1noc(C)c1NC(=O)Nc1ccc2c(c1)C(=O)N([C@H](C)CO)C[C@H](C)[C@@H](CN(C)C(=O)Nc1ccc(C(F)(F)F)cc1)O2	0.7	.	2.0	.	0.3&-2.7	-9&3	-4&17	1.9&0.1	i	.
CCN(CC)C(=O)C1CCN(S(=O)(=O)c2ccc3c(c2)CCCN3C(=O)C2CCC2)CC1	0.67	6	-0.6	14	-0.8	7	5	1.6	i	-0.1
CCOC(=O)c1ccc(N(CC2CO2)S(=O)(=O)c2ccc(C)cc2)cc1 (centres undefined)	0.69	.	3.4	.	1.4	-14	-26	2.7	i	.
COc1ccc(/C(N)=N/OC(=O)Oc2ccccc2)cc1	0.69	-7	-0.3	4	.	.	.	.	.	1.7
Cc1ccc(OCC(=O)Nc2ccc(F)cc2)cc1	0.65	-23	0.9	-5	3.0	0	7	-1.4	i	-0.3
N#CC1(C#N)CC(C=O)=C(N)C1(C#N)CC(=O)c1ccc(F)cc1 (centres undefined)	0.71	.	-2.2	-3	.	.	.	.	.	0.5
C/C(=N\NC(=S)NCCc1ccccc1)c1cccc(Br)c1	.	17	.	-3	-1.6	1	12	2.2	i	0.7
CCOC(=O)c1c(/N=C/N(C)C)sc2c1CCC2	.	8	.	-3	3.5	.	.	.	i	-0.7
c1ccc(C2=NC(c3ccccc3)N=C(c3ccccc3)N2)cc1	0.73	13	3.5	5	.	.	.	.	.	0.7
N#Cc1cc([N+](=O)[O-])ccc1NC(=O)COC(=O)CCC1CCCCC1	.	-8	.	3	2.2	3	-1	-5.3	i	-0.5
NC(=O)COC(=O)c1cc(-c2ccco2)nc2ccccc12	0.67	-8	-281	-6	-3.1	8	6	8.0	i	-1.0
COc1ccccc1NC(=O)CCc1c(C)nc2c(-c3ccc(F)cc3)c(C)nn2c1C	0.67	26	-17	2	8.2	15	5	-2.3	i	0.2
CC(=O)OCC1=C(C(=O)O)N2C(=O)C(NC(=O)CC(C)c3ccccc3)C2SC1 (centres undefined)	0.69	.	1.8	-7	0.9	14	11	0.2	i	0.1

Only part of the results is shown. The share of hits here may be higher or lower than overall.
